High-throughput results: PubChem BioAssay, several laboratories
RanGTP-Imp inh = inhibitors of RanGTP-importin-beta interaction, primary screen, biochemical, FRET, CFP-Ran, YFP-importin-beta, homogeneous; cell-free CFP-Ran/YFP-importin-beta FRET ratio; inhibition, % (no concentration beside the values); 1.1% of 300,000 active;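 active means most replicates above 15%; inconclusive means exactly half above 15%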;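 further: 0% = DMSO wells and 100% = Ran loaded with GDP instead of GTP; wells of about 40 µL received 100 nL stock; the first replicate is given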
Calb FLC = C. albicans growth modulation with fluconazole; C. albicans CaCi-2 (fluconazole-resistant clinical isolate) + fluconazole, Alamar Blue growth, 48 h; growth inhibition, % (concentration not given with the values); 0.57% of 300,000 active; AID 1979;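 active means most replicates above 75%; inconclusive means exactly half above 75%; inactive means most below 75%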;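 further: all wells also contain fluconazole at 8 µg/ml as a sub-toxic cotreatment; 0% = median of DMSO wells and 100% = median of geldanamycin control wells; wells of about 8 µL received 7.5 nL stock; the first replicate is given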
Beta apoptosis = blocks beta cell apoptosis. INS-1E cytokine-induced death, ATP luminescence, 48 h; percent of positive-control rescue, neutral wells zero. protection from apoptosis, % (concentration not given with the values). 0.8% of 300,000 active;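 active means all replicates at 75% or more, or half of them and the mean; inconclusive means half reach 75% but not the mean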;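 further: 0% = cytokine-treated negative control wells and 100% = positive control rescue; higher means more ATP so stronger rescue from cytokine killing; wells of about 40 µL received 100 nL stock; the first replicate is given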
UCH37 inh = blocks the human deubiquitinase UCH37. 0.33% of 330,000 active. purified proteasome/UCH37, Ub-AMC cleavage fluorescence. Q9Y5K5. inhibition, % (concentration not given with the values);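 active means mean of two replicates above 20%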;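 further: 0% = compound-free wells with enzyme and 100% = wells lacking proteasome; stock transfer was 100 nL into about 20 µL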
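assay system = human UCH37 enzyme supplied as purified proteasome complex | amount = proteasome at 0.15 nM in the dispensed enzyme solution | schedule = 30 min compound-proteasome preincubation then 25 min substrate reaction, room temperature | measured by = fluorescence, ex 355 nm, em 460 nm | benchmarks = no-proteasome wells (full inhibition) and compound-free wells (no inhibition)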
LANA-H2B inh = blocks KSHV LANA binding to histone H2A/H2B; cell-free LANA-H2A/H2B peptide, fluorescence polarization; Q9QR71; AID 2629; inhibition, % (concentration not given with the values); 0.6% of 320,000 active; in the data active means inhibition mostly above about 10%, no sharp cut-off; inactive means mostly below about 6.7%;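 further: stock transfer was 7.5 nL into about 10 µL; 0% = median of vehicle wells and 100% = median of positive control wells; one replicate is shown; the record names a cut of 25% in any replicate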
Target sequence (Q9QR71 whole entry, looked up): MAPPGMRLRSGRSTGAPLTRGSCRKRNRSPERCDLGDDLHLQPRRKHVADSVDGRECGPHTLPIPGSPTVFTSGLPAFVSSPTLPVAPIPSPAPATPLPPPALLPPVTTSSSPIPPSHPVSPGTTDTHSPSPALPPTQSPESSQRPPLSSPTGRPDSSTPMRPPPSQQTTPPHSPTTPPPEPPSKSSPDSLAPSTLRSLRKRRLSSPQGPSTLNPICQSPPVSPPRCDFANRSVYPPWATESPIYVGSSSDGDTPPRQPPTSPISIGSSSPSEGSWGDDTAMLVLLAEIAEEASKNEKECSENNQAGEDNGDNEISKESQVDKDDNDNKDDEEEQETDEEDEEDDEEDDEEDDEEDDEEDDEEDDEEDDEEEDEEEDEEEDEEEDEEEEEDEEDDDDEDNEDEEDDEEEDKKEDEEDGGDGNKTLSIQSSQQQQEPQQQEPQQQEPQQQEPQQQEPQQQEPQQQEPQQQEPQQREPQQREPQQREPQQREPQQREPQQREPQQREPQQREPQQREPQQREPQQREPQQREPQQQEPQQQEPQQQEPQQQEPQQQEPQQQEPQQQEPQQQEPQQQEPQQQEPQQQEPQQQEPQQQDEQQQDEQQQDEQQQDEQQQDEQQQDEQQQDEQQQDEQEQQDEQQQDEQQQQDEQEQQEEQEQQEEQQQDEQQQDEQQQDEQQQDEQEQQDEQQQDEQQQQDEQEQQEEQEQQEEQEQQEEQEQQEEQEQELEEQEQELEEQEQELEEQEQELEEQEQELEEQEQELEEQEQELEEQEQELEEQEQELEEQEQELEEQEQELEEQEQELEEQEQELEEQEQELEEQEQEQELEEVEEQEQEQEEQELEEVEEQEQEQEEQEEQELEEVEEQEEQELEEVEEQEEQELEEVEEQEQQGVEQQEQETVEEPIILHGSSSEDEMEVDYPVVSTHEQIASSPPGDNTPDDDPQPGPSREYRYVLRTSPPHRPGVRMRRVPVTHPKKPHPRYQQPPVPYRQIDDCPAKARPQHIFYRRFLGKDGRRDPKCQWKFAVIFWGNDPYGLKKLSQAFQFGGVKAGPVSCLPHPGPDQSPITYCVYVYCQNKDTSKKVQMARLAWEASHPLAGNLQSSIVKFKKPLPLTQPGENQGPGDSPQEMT
A1 inh = inhibitors of the anti-apoptotic protein A1, read as caspase activation | MEF A1-2A-BIM cells, Caspase-Glo 3/7 luminescence, 3 h; percent of clofoctol response, vehicle zero | 0.066% of 330,000 active | caspase activation, % (concentration not given with the values) | AID 2462;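 active means over half of replicate activation scores above 10%, or exactly half above 10 with the replicate mean above 10; inconclusive means replicate mean below 10 yet half the replicates above 10; inactive means over half of replicates below 10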;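 further: wells of about 30 µL received 50 nL stock; many hits fall short of the cut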
T cruzi inh = blocks replication of Trypanosoma cruzi. T. cruzi beta-gal in NIH3T3, luminescence, 90 h. AID 1885. 1.4% of 300,000 active. inhibition, % (test concentration not listed);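 active means mean inhibition across valid replicates above about 55%, limit read from the data; inconclusive means mean below that limit but half or more replicates reach it; inactive means mean below it, under half of replicates reach it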;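 further: signal also drops with host cell toxicity which is not excluded here; 0% = plate median of DMSO wells and 100% = zero luminescence signal; higher percent means less beta-gal luminescence so fewer parasites; stock transfer was 50 nL into about 50 µL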
B2AR ag = human beta-2 adrenergic receptor agonism by FAP. Am2.2-beta2AR cells, FAP receptor internalization, flow cytometry; reference of the scale not given here. 0.43% of 340,000 active. response, % (test concentration not listed). AID 504454. P07550;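 active means response above a set limit, near 3 SD of response in nonfluorescent compounds, cut at about 42% in these data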;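 further: stock transfer was 100 nL into about 11 µL; a reference agonist was the positive control; negative values mostly stem from fluorescent compounds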
An asterisk follows results filed as active; ? = inconclusive; / = no result given.

Sequence of screens – RanGTP-Imp inh	Calb FLC	Beta apoptosis	UCH37 inh	LANA-H2B inh	A1 inh	T cruzi inh	B2AR ag
#1 O=C(NCc1ccccc1)c1ccc(Cl)c(NC2=NC3CS(=O)(=O)CC3S2)c1 (stereo not given)
  -2.0	-4.6	-6.2	1.2	-0.8	-0.7	-9.1	2.4
#2 COc1cc(NC(=O)COc2ccccc2C)ccc1NC(=O)c1ccco1
  -1.6	-0.3	-8.9	-67.2	3.3	0.4	0.4	-0.4
#3 Cc1ccccc1Nc1scc(-c2ccc(Br)cc2)[n+]1-c1ccccc1C
  -4.4	-7.0	10.2	1.2	2.4	0.6	25.9	2.4
#4 O=C(Cc1n[nH]c(=O)c2ccccc12)OCC(=O)c1ccc(OC(F)F)cc1OC(F)F
  ?	3.0	-2.0	2.7	-5.1	-0.1	-2.0	-2.7
#5 CCOc1nc(C)ccc1-c1noc(-c2ccco2)n1
  1.9	2.5	-1.8	3.9	1.6	-1.7	-5.5	-10.8
#6 CCOc1ccc(Br)cc1CNc1ccc2c(c1)OCCO2
  0.6	4.8	1.5	0.5	-4.1	0.9	32.8	1.2
#7 COCC(C)NC(=O)/C(=C/c1ccccc1)c1ccccc1 (stereo not given)
  -3.0	-2.3	-3.4	/	-2.8	0.7	2.3	2.4
#8 COC(=O)C1=CN(Cc2ccc(OC)c(OC)c2)C=C(C(=O)OC)C1c1ccc(F)cc1
  17.7*	-2.2	1.9	/	-3.7	-0.9	36.2	-1.9
#9 COc1ccc(N=Cc2c(O)[nH]c3ccccc23)cc1
  1.0	4.8	4.0	6.3	-2.3	-7.8	1.1	6.7
#10 Cc1onc(-c2ccccc2Cl)c1C(=O)NC(=S)Nc1ccccc1C(N)=O
  ?	-7.9	-1.7	-10.5	4.3	-0.1	-4.9	-9.4
#11 COc1ccc(CC(NC(C)=O)C(=O)NC2CCN(c3c(Cc4ccccc4)c(C)nc4ncnn34)CC2)c(OC)c1 (stereo not given)
  -2.6	3.8	7.0	4.8	0.9	-0.3	4.5	-0.6
#12 O=C(CSC1=NCCS1)N1CCCCCC1
  7.7	-1.9	-3.0	-1.1	-4.6	0.0	-6.8	-3.6
#13 CC(=O)c1ccc(Oc2ccc(C(=O)c3ccc(C)c(C)c3)cc2[N+](=O)[O-])cc1
  -1.2	0.4	7.2	2.2	-1.0	-0.8	26.9	8.9
#14 O=C(Nc1ccccc1)N1CCCC1c1cccs1 (stereo not given)
  3.9	9.0	-12.1	5.3	-7.3	0.8	-3.0	1.1
#15 Cc1ccc(CN2CCN(/N=C/C=C/c3ccccc3[N+](=O)[O-])CC2)cc1
  -7.0	5.8	-2.4	/	1.6	-0.3	33.2	0.1
#16 Cc1cc(NCc2ccccc2)nc(-c2ccccc2O)n1
  9.0	7.6	-5.6	-142.8	3.8	/	9.5	12.1
#17 COc1ccc(/C=N/Nc2nc(-c3cccc(S(=O)(=O)N4CCCC4)c3)cs2)cc1OC
  6.5	10.1	10.3	/	/	0.3	15.7	7.1
#18 CCOC(=O)C1(CCOc2ccccc2)CCN(Cc2cc(OC)cc(OC)c2)CC1
  2.9	-13.1	15.7	3.9	-3.8	-0.6	46.3	6.0
#19 COc1ccc(NC(=O)CSCC(=O)Nc2nnc(C3CC3)s2)cc1
  2.3	-3.5	/	1.5	-4.2	0.5	0.2	1.8
#20 COC(=O)C(=Nc1ccccc1)/C(C(=O)C(=O)N(C)c1ccccc1)=C(\O)c1ccc(Cl)cc1
  6.2	-6.0	-11.7	/	-0.2	-1.0	7.1	-2.0
#21 Cc1ccc(N=Nc2c(O)n(CN3CCOCC3)c3ccccc23)cc1
  -4.0	-11.3	-0.4	2.8	-0.6	-1.0	-4.5	4.2
#22 CCCN(CC(=O)Nc1ccccc1C)C(=O)c1ccc2ccccc2n1
  3.1	-0.4	-4.9	4.5	-1.4	0.8	6.1	2.5
#23 CN1CC2(Cc3c1ccc1ccccc31)C(=O)OC(C)(C)OC2=O
  -0.5	10.7	-7.2	-221.3	0.2	0.8	-5.1	-0.8
#24 COc1ccccc1Nc1nnc(Cc2ccccc2)c(=O)[nH]1
  -6.3	2.7	-2.1	-1.7	0.6	1.1	-2.6	2.4
#25 O=C(CCc1ccccc1)NC(c1cccs1)c1cc(Cl)c2cccnc2c1O (stereo not given)
  -14.8	?	/	4.9	/	/	66.2*	4.8
#26 CC(=O)Nc1ccc(S(=O)(=O)NCC(=O)OCC(=O)NC(=O)c2cccn2C)cc1
  0.0	-14.4	-1.4	2.7	-6.0	0.0	-13.6	3.4
#27 COc1ccccc1NC(=O)C(C)N(C)CCOc1ccccc1 (stereo not given)
  6.9	1.4	4.1	4.2	-4.7	1.5	1.2	-4.1
#28 O=c1oc2cc(O[C@@H]3OC[C@@H](O)[C@H](O)[C@H]3O)ccc2c2ccccc12
  -4.3	0.4	/	-237.2	-3.4	-0.7	-6.1	-10.9
#29 CS(=O)c1ccccc1COC(=O)Nc1cccc(Cl)c1 (stereo not given)
  2.5	2.3	5.3	1.5	-6.1	-0.2	-5.9	-7.7
#30 CC(=O)c1cccc(NC(=O)N2C3CCC2CC(NC(=O)C2CC2)C3)c1 (stereo not given)
  5.2	13.6	3.1	-0.9	1.3	1.3	3.6	-2.3

New compounds follow
Sequence of screens – RanGTP-Imp inh	Calb FLC	Beta apoptosis	UCH37 inh	LANA-H2B inh	A1 inh	T cruzi inh	B2AR ag
#31 C=CCn1c(SCC(=O)Nc2ccccc2F)nc2ccccc2c1=O
  2.4	4.8	1.1	1.3	2.9	0.2	5.1	-6.7
#32 Cc1ccc(Sc2ncccc2C(=O)NCC(c2ccc(F)cc2)N2CCOCC2)cc1C (stereo not given)
  0.5	-3.6	-4.7	-1.3	3.5	1.1	-3.5	2.2
#33 Cc1ccccc1C(=O)Nc1nnc(SCC(=O)NC2CC2)s1
  3.3	-1.8	-1.8	0.8	-2.4	-4.4	-1.6	-1.9
#34 COC(=O)c1ccccc1C(=O)N1CCOCCOCCOCC1
  -4.5	28.1	-1.1	2.1	2.2	-0.4	-11.7	-4.3
#35 CC1(C)CC(=O)C(C2=NC3(CCCCCC3)Cc3ccccc32)=C(O)C1
  -2.7	-0.3	1.6	6.5	-5.1	-0.3	1.3	-3.9
#36 CS(=O)(=O)Nc1ccc(C(=O)Nc2ccccc2C(=O)NCc2ccco2)cc1
  1.3	-6.1	-6.7	2.9	0.7	0.6	1.2	3.7
#37 C[C@H](NC(=O)c1ccc2c(c1)OCO2)c1nnc2ccccn12
  1.4	-5.7	-10.1	4.5	12.9	2.8	-4.6	-1.0
#38 CCOC(=O)CCCNC(=O)CN1C(=O)NC2(CCCCCC2)C1=O
  -0.6	-11.2	-8.3	1.3	-1.0	0.1	-5.1	8.9
#39 O=C(NCc1ccccn1)C1CCCN(S(=O)(=O)c2ccccc2)C1 (stereo not given)
  -1.8	-7.0	-3.4	7.2	0.1	-0.1	1.5	2.8
#40 COc1ccc(CNC(=O)C(C)NCc2ccccc2Cl)cc1 (stereo not given)
  3.1	5.7	/	4.5	0.1	0.3	-5.5	5.2
#41 C#CCOCCOCCOCCNc1nc(N2CCN(C(=O)[C@H](CO)n3cc([C@@H](N)C(C)C)nn3)CC2)nc(N2CCN(C(=O)[C@H](CCC(=O)O)n3cc([C@@H](N)CCCCN)nn3)CC2)n1
  /	/	-4.9	3.2	-256.1	0.2	/	6.4
#42 Cc1ccc(F)cc1NC(=O)CSCc1c(C)noc1C
  /	/	4.8	1.9	4.5	1.6	/	-5.1
#43 O=C(NC1CC1)c1ccc(N2CCCCC2)c([N+](=O)[O-])c1
  1.3	-3.6	/	4.5	-3.7	-0.3	12.9	-9.8
#44 O=C(c1ccc(Cl)cc1)N1CCCCC(Cl)C1=O (stereo not given)
  ?	-12.3	-3.1	-0.1	/	-0.1	-11.7	10.8
#45 COc1ccc(-c2nc(C(=O)O)cs2)cc1OC
  2.9	8.4	-5.1	-2.6	0.1	0.3	-7.7	0.4
#46 Cc1nn(S(=O)(=O)c2ccc(C(C)C)cc2)c(C)c1S(=O)(=O)N1CCOCC1
  -3.2	-3.4	-11.8	1.6	1.1	0.7	-3.0	7.7
#47 COc1ccc(/C=C2\SC(=S)N(NC(=O)c3csc4c3CCCC4)C2=O)cc1
  -5.2	1.2	-11.2	2.9	4.9	-1.5	-5.0	3.6
#48 CCCOc1ccc(C(=O)N(Cc2cccs2)C2CCS(=O)(=O)C2)cc1 (stereo not given)
  5.2	6.7	1.6	1.9	-5.4	0.3	-7.1	-4.6
#49 S=c1[nH]nc(-c2cccs2)n1/N=C/c1cn(-c2ccccc2)nc1-c1ccccc1
  1.5	16.3	/	/	-0.9	-5.0	-8.1	-2.6
#50 Cc1cc(C)nc(/N=C2\NC(=O)CC3C(=O)NCCN23)n1 (stereo not given)
  ?	-12.9	-0.7	0.6	0.2	-0.7	-9.8	-6.8
#51 Cc1ccc(C(=O)SC2=NCCS2)cc1
  -1.3	3.8	1.5	5.3	-3.9	-0.3	-11.4	11.7
#52 O=C(O)C(C(=O)O)=C1C2CC3CC(C2)CC1C3
  -3.0	3.4	2.5	-0.2	3.8	0.1	-5.7	-2.0
#53 CCCCN(CCCC)CCNC(=O)CNC(=O)c1cccs1
  4.3	-8.6	0.8	2.4	-1.4	-0.1	-4.9	0.0
#54 COc1ccc(C)cc1NC(=O)NCCC1=CCCCC1
  0.4	-27.2	-9.8	0.3	1.4	1.0	26.2	-8.5

One compound at a time (already shown):
`CC1(C)CC(=O)C(C2=NC3(CCCCCC3)Cc3ccccc32)=C(O)C1` as listed: RanGTP-Imp inh = -2.7; Calb FLC = -0.3; Beta apoptosis = 1.6; UCH37 inh = 6.5; LANA-H2B inh = -5.1; A1 inh = -0.3; T cruzi inh = 1.3; B2AR ag = -3.9
`Cc1ccccc1C(=O)Nc1nnc(SCC(=O)NC2CC2)s1` as listed: RanGTP-Imp inh = 3.3; Calb FLC = -1.8; Beta apoptosis = -1.8; UCH37 inh = 0.8; LANA-H2B inh = -2.4; A1 inh = -4.4; T cruzi inh = -1.6; B2AR ag = -1.9
